Source: PubChem BioAssay
Rango release inh – inhibitors of RanGTP-induced Rango-importin beta complex dissociation; O95149+P62826; Biochemical FRET Rango-importin beta, RanGTP-induced dissociation; Potency, µM (series often up to 46.1 µM), inactives show at the top dose activity change, negative = inhibition; actives 0.071% (n = 340,000); AID 540253; active means falling FRET ratio curve, often poorly fitted, with flat reads before Ran was added; inconclusive means other falling curves, or compound fluorescence or quenching; inactive means flat or rising ratio curve;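 note: potency is the fitted concentration of half-maximal effect; % of control where 0% means no effect; nearly all actives have a fitted effect of over 45% in size; -100% = wells without RanGTP and RCC1; the record marks most hits as doubtful in a second field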
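Rango/importin beta premix (0.1/0.25 uM final), PBS + 1 mM DTT + 0.02% Tween-20 + 0.1% BSA; cpd 5 min RT; FRET pre-read; + RanGTP-RCC1 (0.6 uM Ran, 2 mM GTP, 0.2 uM RCC1); 45 min RT; FRET post-read, ex 430, em 486/530 nm.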
miR-21 reporter – miR-21 reporter, rising signal. HeLa miR-21 FLuc reporter, luciferase, 48 h. Potency, µM (titrated, usually from 38.3 µM), for the others: top-dose reporter change, positive = more light. 340,000 tested, under 10 active; active = well fitted rising curve with a large enough effect; inconclusive = small, poorly fitted or top-dose-only effect; inactive = no such curve, though single readings can be large or run the other way;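 note: % of control where 0% means no effect; miR-21 action dims this reporter so a rising signal means less miR-21 action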
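HeLa miR-21-FLuc reporter line, endogenous miR-21; 2000 cells/well in DMEM/10% FBS; compound titration up to ~40uM final, 48 h, 37 degree Celsius; luciferase detection reagent, 15 min lysis, CCD luminescence.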
Rango-impB inh – inhibitors of Rango-importin beta complex formation; actives 0.031% (n = 340,000); Rango CFP/YFP FRET sensor + importin beta, 45 min; Q14974; Potency, µM (titrated, usually from 92.2 µM), without a hit: top-dose inhibition of complex formation; active = rising FRET ratio curve, often small or poorly fitted; inconclusive = mostly compound fluorescence or quenching in the first reads; inactive = flat curves in all reads;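 note: potency is the fitted concentration of half-maximal effect; 0% = DMSO wells and 100% = buffer wells lacking importin beta; nearly all actives have a fitted effect of over 15% in size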
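FRET biosensor (snurportin 1 IBB flanked by EYFP and cerulean), 50 nM, with compound 5 min, then 0.125 microM importin beta in PBS, 1 mM DTT, 0.02% Tween-20, 0.1% BSA. CFP/YFP ratio read after 45 min at room temperature; pre-read flags interference.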
GLA inh pH 4.5 – inhibitors of human alpha-galactosidase A at pH 4.5. P06280. purified enzyme, 4-MU-alpha-Gal fluorescence, pH 4.5. activity change, negative = inhibition, % at 105 µM. 230,000 tested, under 10 active. AID 1467; inconclusive = small, poorly fitted or top-dose-only inhibition, or a rising curve; inactive = flat fitted curve, though single readings scatter; no compound was filed as active;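 note: 0% = full activity with enzyme and -100% = basal without enzyme; dose as in the result columns while the protocol names 77 µM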
Target sequence (P06280 whole entry, looked up): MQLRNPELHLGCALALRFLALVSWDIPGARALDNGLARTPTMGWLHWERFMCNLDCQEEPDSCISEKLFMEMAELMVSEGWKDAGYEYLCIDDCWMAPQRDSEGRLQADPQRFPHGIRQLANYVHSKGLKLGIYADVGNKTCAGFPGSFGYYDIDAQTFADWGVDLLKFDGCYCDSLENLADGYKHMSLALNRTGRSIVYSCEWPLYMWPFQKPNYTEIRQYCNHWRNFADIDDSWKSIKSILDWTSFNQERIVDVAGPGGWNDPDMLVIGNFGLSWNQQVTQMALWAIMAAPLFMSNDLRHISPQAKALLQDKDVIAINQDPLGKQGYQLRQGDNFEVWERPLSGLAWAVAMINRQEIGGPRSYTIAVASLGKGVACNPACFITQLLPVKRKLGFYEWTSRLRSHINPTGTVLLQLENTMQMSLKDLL
Starred values were filed as active, the others as inactive; & = joins results of further samples. A portion of the library; count on the stated rates, not on these rows.

For Cc1ccc(S(=O)(=O)Nc2cccc(C(=O)N3CCOCC3)c2)cc1 the results were Rango release inh 1%, miR-21 reporter -1% and Rango-impB inh -0.5%.
Screening COc1ccc(C/C(C)=N/NC(=S)Nc2ccc(Cl)cc2)cc1 returned Rango release inh -29%, miR-21 reporter 3%, Rango-impB inh -2.4% and GLA inh pH 4.5 6.
For O=C(CSc1nnnn1C1CCCC1)NCc1cccs1 the results were Rango release inh -9%, miR-21 reporter -2%, Rango-impB inh -2.1% and GLA inh pH 4.5 -2.
Cc1ccc(NC(=O)CN(C)S(=O)(=O)c2ccc3c(c2)n(C)c(=O)c(=O)n3C)c(C)c1 was read as Rango release inh 3%, miR-21 reporter -1%&0% and Rango-impB inh 0.0%.
CC(=O)Nc1ccc(S(=O)(=O)N2CCC(C(=O)N[C@@H](Cc3ccccc3)C(=O)O)CC2)cc1 was read as Rango release inh 1%, miR-21 reporter -1% and Rango-impB inh 5.0%.
For CCCCCc1nnc(NC(=O)c2ccc(N3CCCC3=O)cc2)s1 the results were Rango release inh 8% and Rango-impB inh 0.9%.
For CCN(CC(=O)NC1CCCC1)S(=O)(=O)c1ccc(Br)cc1 the results were Rango release inh 2%, miR-21 reporter 1% and Rango-impB inh 2.0%.
For COc1ccc([N+](=O)[O-])cc1NC(=O)C(C)N1CCCC1 (stereo not given) the results were Rango release inh -1%, miR-21 reporter -5% and Rango-impB inh -2.3%.
For Cc1noc(C)c1S(=O)(=O)N1CCN(S(=O)(=O)c2ccccc2C#N)CC1 the results were Rango release inh -16%, miR-21 reporter 1% and Rango-impB inh 4.2%.
`c1ccc(-c2nnsc2-c2nc3ccccc3[nH]2)cc1` gave Rango release inh 21%, miR-21 reporter -3%, Rango-impB inh -3.9% and GLA inh pH 4.5 -7.
Screening O=C(CN(c1ccc(Br)cc1)S(=O)(=O)c1ccc(Cl)c([N+](=O)[O-])c1)NCCc1ccccc1 returned Rango release inh -12%, miR-21 reporter 0%, Rango-impB inh -0.1% and GLA inh pH 4.5 2.
`O=[N+]([O-])c1ccc(SCc2ccco2)cc1N1CCOCC1` gave Rango release inh 7%, miR-21 reporter -32%, Rango-impB inh -0.9% and GLA inh pH 4.5 -8.
`Cc1cc(C)cc(C(=O)NC(CC(N)=O)c2ccc(N3CCCCCC3)c([N+](=O)[O-])c2)c1` (stereo not given) gave Rango release inh -3%, miR-21 reporter 1% and Rango-impB inh -5.5%.
Cc1c(N2C(=O)C3C4C=CC(C5CC45)C3C2=O)c(=O)n(-c2ccccc2)n1C (stereo not given) was read as Rango release inh 7%, miR-21 reporter 2%, Rango-impB inh -0.2% and GLA inh pH 4.5 -10.
For CCCc1cc(C(=O)NNC(=S)NCc2ccccc2)cs1 the results were Rango release inh 1%, miR-21 reporter -15%, Rango-impB inh 4.0% and GLA inh pH 4.5 -12.

Brought forward from above: seven entries, then new ones.
For Cc1noc(C)c1S(=O)(=O)N1CCN(S(=O)(=O)c2ccccc2C#N)CC1 the results were Rango release inh -16%, miR-21 reporter 1% and Rango-impB inh 4.2%.
`c1ccc(-c2nnsc2-c2nc3ccccc3[nH]2)cc1` gave Rango release inh 21%, miR-21 reporter -3%, Rango-impB inh -3.9% and GLA inh pH 4.5 -7.
Screening O=C(CN(c1ccc(Br)cc1)S(=O)(=O)c1ccc(Cl)c([N+](=O)[O-])c1)NCCc1ccccc1 returned Rango release inh -12%, miR-21 reporter 0%, Rango-impB inh -0.1% and GLA inh pH 4.5 2.
`O=[N+]([O-])c1ccc(SCc2ccco2)cc1N1CCOCC1` gave Rango release inh 7%, miR-21 reporter -32%, Rango-impB inh -0.9% and GLA inh pH 4.5 -8.
`Cc1cc(C)cc(C(=O)NC(CC(N)=O)c2ccc(N3CCCCCC3)c([N+](=O)[O-])c2)c1` (stereo not given) gave Rango release inh -3%, miR-21 reporter 1% and Rango-impB inh -5.5%.
Cc1c(N2C(=O)C3C4C=CC(C5CC45)C3C2=O)c(=O)n(-c2ccccc2)n1C (stereo not given) was read as Rango release inh 7%, miR-21 reporter 2%, Rango-impB inh -0.2% and GLA inh pH 4.5 -10.
For CCCc1cc(C(=O)NNC(=S)NCc2ccccc2)cs1 the results were Rango release inh 1%, miR-21 reporter -15%, Rango-impB inh 4.0% and GLA inh pH 4.5 -12.
Screening CCOc1ccc(S(=O)(=O)N2CCC(C(=O)NCCN3CCOCC3)CC2)cc1C returned Rango release inh -3%, miR-21 reporter 3% and Rango-impB inh -3.1%.
Cc1ccc(S(=O)(=O)N2CCCCC2)cc1NC(=O)CCOc1ccccc1 was read as Rango release inh 5%, miR-21 reporter 0%, Rango-impB inh 0.4% and GLA inh pH 4.5 -11.
For Cc1ccc(C(=O)c2cc([N+](=O)[O-])ccc2N2CCCCC2)cc1C the results were Rango release inh -22%, miR-21 reporter 15%, Rango-impB inh 0.5% and GLA inh pH 4.5 -3.
For Cc1ccccc1N=C1SC(CC(=O)Nc2ccc3ccccc3c2)C(=O)N1Cc1ccccn1 (stereo not given) the results were Rango release inh 14%, miR-21 reporter inconclusive, Rango-impB inh 4.2% and GLA inh pH 4.5 4.
CC1CCCN(CCOc2ccc3ccccc3c2Br)C1 (stereo not given) was read as Rango release inh -7%, miR-21 reporter -36%, Rango-impB inh 0.7% and GLA inh pH 4.5 -12.
CC1CCC(NC(=O)c2nc(Cn3ccc([N+](=O)[O-])n3)no2)CC1 (stereo not given) was read as Rango release inh 2%, miR-21 reporter -6% and Rango-impB inh 1.7%.
O=C(NCC(c1ccc(F)cc1)N1CCOCC1)c1ccc([N+](=O)[O-])o1 (stereo not given) was read as Rango release inh -9% and Rango-impB inh 0.5%.
For CCCOC1CCCN(C(=O)CCc2nnc(CCCCc3ccccc3)o2)C1 (stereo not given) the results were Rango release inh 1%, miR-21 reporter -9%, Rango-impB inh -2.2% and GLA inh pH 4.5 8.
`Cc1ccc(S(=O)(=O)C2C(=O)N(C)C3(C)CC2c2ccccc2O3)cc1` (stereo not given) gave Rango release inh 7%, miR-21 reporter -6%, Rango-impB inh -0.7% and GLA inh pH 4.5 -1.
For Cc1cccc(C)c1C(OCCN(C)C)C1CCCCC1 (stereo not given) the results were Rango release inh 10%, miR-21 reporter 0%, Rango-impB inh 4.5% and GLA inh pH 4.5 -4.
`CCCC(=O)Nc1ccc2c(c1)C(=O)NC2=O` gave Rango release inh -1%, miR-21 reporter -10%, Rango-impB inh 0.1% and GLA inh pH 4.5 14.
`CCN(CC)CCCCCC(=O)Nc1ccccc1C(=O)Nc1ccccc1` gave Rango release inh 29%, miR-21 reporter -8% and Rango-impB inh 7.7%.
Screening CCOc1ccc(C(C(=O)NCC2CCCO2)N(Cc2cccc(OC)c2)C(=O)c2snc(C(N)=O)c2N)cc1 (stereo not given) returned Rango release inh 5%, miR-21 reporter 7% and Rango-impB inh 0.6%.
FC(F)(F)c1cc(-c2cccs2)nc2cc(-c3cccs3)nn12 was read as Rango release inh inconclusive, miR-21 reporter -2%, Rango-impB inh inconclusive and GLA inh pH 4.5 0.
CC(=O)Nc1cccc(NC(=O)CSc2nc3c(c(=O)n(C)c(=O)n3C)n2C)c1 was read as Rango release inh -2%, miR-21 reporter 12% and Rango-impB inh -1.6%.
Screening O=C(NNC(=S)Nc1ccc(F)c(Cl)c1)C1CC1 returned Rango release inh 0%, miR-21 reporter -2%, Rango-impB inh inconclusive and GLA inh pH 4.5 -1.
CC(C)(C)c1nnc2sc(SCC(=O)c3cccs3)nn2c1=O was read as Rango release inh 3%, miR-21 reporter -10%, Rango-impB inh -1.3% and GLA inh pH 4.5 -3.
For CN(CC(=O)Nc1c(Cl)cccc1Cl)C(=O)C1CCN(C(=O)Nc2ccccc2)CC1 the results were Rango release inh 8% and Rango-impB inh 2.7%.
Screening Cc1c(Cl)cccc1N(CC(=O)O)S(C)(=O)=O returned Rango release inh 1%, miR-21 reporter 0%, Rango-impB inh -5.5% and GLA inh pH 4.5 -4.
`CC1(C)Cc2nc3oc4c(SCC(N)=O)ncnc4c3cc2CO1` gave Rango release inh -1%, miR-21 reporter -11%, Rango-impB inh -1.0% and GLA inh pH 4.5 -3.
For O=C1CCCN1c1nccs1 the results were Rango release inh inconclusive, miR-21 reporter 4%, Rango-impB inh -0.2% and GLA inh pH 4.5 8.
`Cc1cc(C(=O)NCc2cccs2)n(-c2ccccc2)n1` gave Rango release inh -1%, miR-21 reporter 0%, Rango-impB inh -1.0% and GLA inh pH 4.5 -7.
Screening CN(C)CCCNCCCNC(=O)/C(=N\O)c1ccccc1 returned Rango release inh -5%, miR-21 reporter 1%, Rango-impB inh 0.0% and GLA inh pH 4.5 6.
For COc1cc(OC)cc(C(=O)Nn2cc(C(=O)N3CCN(C)CC3)c3ccccc3c2=O)c1 the results were Rango release inh -3%, miR-21 reporter -5%, Rango-impB inh 0.7% and GLA inh pH 4.5 -2.
Screening O=C(C[C@@H]1C/C=C\CC[C@H](Cc2ccc(F)cc2)C(=O)OC[C@@H](Cc2ccccc2)NC1=O)NCCO returned Rango release inh 6% and Rango-impB inh -1.6%.
`O=C(Nc1nc2ccccc2s1)c1cc(-c2ccco2)nc2ccccc12` gave Rango release inh -6%, miR-21 reporter -11%, Rango-impB inh -1.0% and GLA inh pH 4.5 1.
For CCC(CC)C(=O)N1c2ccc(F)cc2CCC1C (stereo not given) the results were Rango release inh -1%, miR-21 reporter -4%, Rango-impB inh 2.3% and GLA inh pH 4.5 3.
`O=C(Nc1ccccc1C(=O)N1CCCC1)C1COc2ccccc2O1` (stereo not given) gave Rango release inh -7%, miR-21 reporter 0%, Rango-impB inh -5.3% and GLA inh pH 4.5 -3.
COc1ccc(OCCCC(=O)NC(C)c2ccccc2)cc1 (stereo not given) was read as Rango release inh -8%, miR-21 reporter -1%, Rango-impB inh -0.9% and GLA inh pH 4.5 -2.
Screening Cc1cc(-c2nnc(SCC(=O)Nc3ccc(C)c(C)c3)n2N)n[nH]1 returned Rango release inh -10%, miR-21 reporter -21% and Rango-impB inh 6.1%.
For Cc1nc2nc(C)c(CCC(=O)N3CCN(c4ccccn4)CC3)c(C)n2n1 the results were Rango release inh 1%, miR-21 reporter 0%, Rango-impB inh 1.8% and GLA inh pH 4.5 -2.
COc1ccc(-c2cnnc(N/N=C/c3c(C)nn(-c4ccccc4)c3Cl)n2)cc1 was read as Rango release inh 6%, miR-21 reporter -3%, Rango-impB inh -0.8% and GLA inh pH 4.5 4.
For COc1ccc(C2=NOC(C(=O)N3CCN(c4ccccc4OC)CC3)C2)cc1 (stereo not given) the results were Rango release inh 0%, miR-21 reporter -7%, Rango-impB inh -0.4% and GLA inh pH 4.5 -13.
Cc1ccc(S(=O)(=O)N2CCC(C(=O)OCC(=O)N3CC(=O)Nc4ccccc43)CC2)cc1 was read as Rango release inh 9%, miR-21 reporter 0%, Rango-impB inh -0.2% and GLA inh pH 4.5 -1.
For O=C(C[C@@H]1C/C=C\CC[C@@H](Cc2ccc(F)cc2)C(=O)OC[C@@H](Cc2ccccc2)NC1=O)NCCO the results were Rango release inh 4% and Rango-impB inh 2.9%.
Screening CCOc1ccc2c(c1)c1nc3ccccc3nc1n2C returned Rango release inh 8%, miR-21 reporter 1% and Rango-impB inh -1.9%.
`CCC(C)NC(=O)c1nc2c(nnn2Cc2ccccc2Cl)c(=O)[nH]1` (stereo not given) gave Rango release inh 0%, miR-21 reporter -16%, Rango-impB inh -0.7% and GLA inh pH 4.5 -27.
For CCCNC(=O)c1c[nH]c2ccc(S(=O)(=O)N(C)c3ccc(OCC)cc3)cc2c1=O the results were Rango release inh 1%, miR-21 reporter 5%, Rango-impB inh -1.0% and GLA inh pH 4.5 -4.
`CSc1ccccc1-c1n[nH]c(=S)o1` gave Rango release inh -4%, miR-21 reporter 4%, Rango-impB inh 5.4% and GLA inh pH 4.5 1.
For CCCN(CCC)CCCNC(=O)CC1Nc2ccccc2NC1=O (stereo not given) the results were Rango release inh -12%, miR-21 reporter -3%, Rango-impB inh -1.1% and GLA inh pH 4.5 2.
